Cruzain inh noDet: blocks cruzain activity in detergent-free assay. Potency, µM, without a hit: max response, negative = inhibition, usual class: inhibitors. 2.3% of 200,000 active. purified cruzain, Z-FR-AMC fluorescence, no detergent. P25779. AID 1476; active = well fitted curve in the direction sought with a large enough effect; inconclusive = small, poorly fitted or top-dose-only effect, or another doubt; inactive = no such curve, though single readings can be large; an effect the other way counts as inactive or inconclusive;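 also: plate controls were enzyme without inhibitor for no effect and buffer without enzyme for full effect; nearly all actives have a fitted effect of over 40% in size; top concentration of the series not given in the record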
Target sequence (P25779 123-467 limits assumed): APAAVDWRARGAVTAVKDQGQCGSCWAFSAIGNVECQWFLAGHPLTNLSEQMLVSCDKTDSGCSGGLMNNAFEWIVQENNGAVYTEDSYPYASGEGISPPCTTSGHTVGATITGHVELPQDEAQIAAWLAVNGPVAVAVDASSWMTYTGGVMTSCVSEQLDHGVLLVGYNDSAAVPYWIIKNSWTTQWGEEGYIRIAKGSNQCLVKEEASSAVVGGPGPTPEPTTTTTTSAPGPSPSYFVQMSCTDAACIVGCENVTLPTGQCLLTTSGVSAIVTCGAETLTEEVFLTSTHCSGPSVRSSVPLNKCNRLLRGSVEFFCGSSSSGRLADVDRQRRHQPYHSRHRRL
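Purified cruzain at 1.5 nM, pre-incubated 15 min with compound at room temperature in 100 mM sodium acetate pH 5.5, 5 mM DTT, 0.00005% Triton X-100. Reaction started with 2 uM Z-FR-AMC; AMC fluorescence increase over 60 s gives rate.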
2A StopGo: lowers the luciferase signal of an FMDV 2A StopGo reporter; human cells with a luciferase reporter of 2A StopGo recoding; control for the full effect not named in the record; Potency, µM (titrated, usually from 57.9 µM), without a hit: at the highest dose signal change, negative = less light; 1.2% of 410,000 active; active = well fitted falling curve with a large enough effect; inconclusive = small, poorly fitted or top-dose-only effect; inactive = no such curve, though single readings can be large or run the other way; tested in HEK293T cells; also: % is scaled to controls: 0 for no effect and ±100 for the full control effect; nearly all actives have a fitted effect of over 45% in size; luciferase light after 4 h
NS1 function inh: inhibitors of influenza NS1 protein function; 0.4% of 270,000 active; S. cerevisiae slowed by influenza A NS1, growth recovery by OD600; Potency, µM (doses to about 46.1 µM), for inactives: at the top dose activity, positive = more growth; also: actives are rising curves; nearly all actives have a fitted effect of over 50% in size
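Read-out: OD600 growth recovery of NS1-expressing budding yeast. Cells grown overnight at 30C in -URA glucose medium, washed, resuspended and diluted 1:100 in 2% galactose assay medium, pH 6.0. Same strain lacking NS1 served as positive control.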
Cruzain inh Det: inhibitors of Trypanosoma cruzi cruzain with detergent; P25779; purified cruzain, Z-FR-AMC fluorescence, 0.01% Triton; Potency, µM, for inactives: max response, negative = inhibition, most hits filed as inhibitors; 0.43% of 200,000 active; AID 1478; active = well fitted curve in the direction sought with a large enough effect; inconclusive = small, poorly fitted or top-dose-only effect, or another doubt; inactive = no such curve, though single readings can be large; an effect the other way counts as inactive or inconclusive;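 also: plate controls were neutral wells for no effect and buffer without enzyme for full effect; nearly all actives have a fitted effect of over 40% in size; top concentration of the series not given in the record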
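Cysteine protease activity tested under reducing, mildly acidic conditions (100 mM sodium acetate pH 5.5, 5 mM DTT) plus 0.01% Triton X-100. Cruzain 1.5 nM; substrate Z-FR-AMC 2 uM; 15 min compound preincubation at room temperature.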
SARS PLP yeast: blocks SARS-CoV papain-like protease in a yeast assay | Potency, µM (titrated, usually from 32.9 µM), without a hit: at the top dose activity, positive = growth rescue | 0.19% of 330,000 active | S. cerevisiae expressing SARS-CoV PLpro, growth rescue; control for the full effect not named in the record; also: 0% is about no effect; nearly all actives have a fitted effect of over 55% in size; growth read by luminescence after 48 h
LASV entry inh: blocks Lassa virus binding to or entry into cells | Lassa virus pseudotype entry inhibition, cell reporter; control for the full effect not named in the record | Potency, µM (titrated, usually from 37.9 µM), inactives show at the top dose activity change, negative = inhibition, most hits filed as inhibitors | 1.2% of 300,000 active | AID 540256; active means well fitted inhibition curve with a large enough effect; inconclusive means small, poorly fitted or top-dose-only effect, or effect the other way; inactive means flat fitted curve, though single readings scatter; tested in HEK293 cells; also: % is scaled to controls: 0 for no effect and ±100 for the full control effect; nearly all actives have a fitted effect of over 50% in size; luciferase read-out
MARV entry inh: Marburg virus entry inhibition; Marburg virus pseudotyped entry inhibition, cell reporter; control for the full effect not named in the record; about a third of the inactives were read at about 46 µM; Potency, µM (titrated, usually from 37.8 µM), without a hit: at the highest dose activity change, negative = inhibition, actives largely listed as inhibitors; 1.8% of 300,000 active; AID 540276; active = well fitted inhibition curve with a large enough effect; inconclusive = small, poorly fitted or top-dose-only effect, or effect the other way; inactive = flat fitted curve, though single readings scatter; tested in HEK293 cells; about a fifth of its hits are not listed in these tables; also: % is scaled to controls: 0 for no effect and ±100 for the full control effect; luciferase read-out
RE007 growth inh: less growth of the S. pombe RE007 Vpr strain. Potency, µM (titrated, usually from 92.2 µM), for the others: at the top dose activity change, negative = less growth. 0.21% of 360,000 active. S. pombe RE007 Vpr strain, BacTiter-Glo ATP luminescence, 24 h; control for the full effect not named in the record; active = well fitted falling curve with a large enough effect; inconclusive = small, poorly fitted or top-dose-only effect; inactive = no such curve, though single readings can be large or run the other way;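 also: % is scaled to controls: 0 for no effect and ±100 for the full control effect; nearly all actives have a fitted effect of over 50% in size; the assay follows cell death caused by Vpr and the record does not say whether a fall means rescue or toxicity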
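Fission yeast RE007 carrying one integrated HIV-1 vpr copy, seeded at OD 0.01 in PMG+AL medium with 23 nL pinned compound. Grown 24 h at 30 degrees; viability read by BacTiter-Glo luminescence after 5 min.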
* marks the source's active call; other numbers are inactive results; ? = inconclusive; . = no result given; & = joins results of further samples; [ ] = remark or other dose. Unless noted, calls follow the shape of the dose curve; as a rule, active means well fitted rising curve with a large enough effect; inconclusive means small, poorly fitted or top-dose-only effect; inactive means no such curve, though single readings can be large or run the other way. Potency is read from the fitted curve at half-maximal effect.

SMILES | Cruzain inh noDet | 2A StopGo | NS1 function inh | Cruzain inh Det | SARS PLP yeast | LASV entry inh | MARV entry inh | RE007 growth inh
CCOP(=O)(OCC)C(NC(=O)Nc1ccc(C)cc1)C(N)=O (stereo not drawn) | . | 6% | 4% | . | 1% | 13% | 1%[14.2 µM] | 6%
Cc1c(Cl)cccc1NC(=O)Cn1cc2c(n1)CCCC2 | -9% | 3% | . | -2.3% | . | -1%[46.1 µM] | -13%[46.1 µM] | .
S=C(Nc1ccc(Br)cc1)Nc1ccc2c(c1)OCCO2 | . | 12% | -17% | . | 2% | . | . | 16%
COc1ccc(NC(=O)C2CC(=O)N(c3cc(C)ccc3C)C2)cc1 (stereo not drawn) | 2% | -8% | -3% | 5.3% | 2% | 16% | 7% | 10%
CCOC(=O)c1c(NC(=O)CSc2nnc3c(Cl)cc(Cl)cn23)sc2c1CCC2 | -1% | -26% | 14% | -10% | -10% | -6% | -13% | -2%
O=C(Nc1ccccc1F)C(Cc1ccccc1)n1cccc1 (stereo not drawn) | -6% | -7% | . | -8.7% | . | . | -3%[46.1 µM] | .
OCCNCC(O)Cn1c2ccccc2c2ccccc21 (stereo not drawn) | . | 0% | -2% | . | 0% | . | . | 27%
CCCCN(C)CCNC(=O)C(NC(=O)C1CCC(C)CC1)C(C)C (stereo not drawn) | . | 0% | . | . | 2% | 9%[46.1 µM] | 3%[46.1 µM] | -1%
COc1ccc(NC(=O)CCc2nc3c(C)nn(-c4ccc(C)cc4)c3n(C)c2=O)c(OC)c1 | 0% | -14% | . | 2.5% | . | 2%[46.1 µM] | . | .
O=c1c2ccccc2ncn1-c1ccc(Br)cc1[N+](=O)[O-] | . | -2% | 6% | . | 0% | . | . | 42%
CCC(C)c1ccc2oc(-c3ccc(NC(=O)c4cc5ccccc5o4)cc3)nc2c1 (stereo not drawn) | 20% | ? | . | 0.0% | . | 21%[46.1 µM] | ? | .
O=C(Nc1ccccc1F)Oc1cccc(OC(=O)Nc2ccccc2F)c1 | . | 56%[activator] | -30% | . | -2% | . | . | -7%
CCN(CC(=O)Nc1c(F)cccc1F)C(=O)c1cc([N+](=O)[O-])ccc1N1CCOCC1 | . | 6% | . | . | -4% | -12% | 26% | 13%
Cn1c(-c2ccccc2)cnc1SCc1nc2ccccc2c(=O)[nH]1 | 0% | -33% | -17% | 0.7% | -15% | -3% | -20% | 29%
Cc1c(Cl)cccc1S(=O)(=O)Nc1ccnn1C | . | 4% | 2% | . | 0% | -4% | 1%[46.1 µM] | -18%
Cc1nc2cc(C(F)(F)F)ccc2n1C | . | 4% | . | . | -2% | ? | ? | -11%
COc1ccc(-n2cc(C(=O)NCc3ccc(Cl)cc3)c3ccccc3c2=O)cc1 | -17% | -21% | . | -6.0% | . | 17%[46.1 µM] | . | .
CCC(C)N(C(=O)COc1ccc(Br)cc1C=O)C1CCS(=O)(=O)C1 (stereo not drawn) | . | -27% | . | . | 3% | 0% | -8% | ?
CC1CCCCN1C(=O)c1cc2c(=O)n3ccccc3nc2s1 (stereo not drawn) | . | 40%[activator] | -22% | . | -1% | 8%[46.1 µM] | ? | 3%
CCCN(CCC)S(=O)(=O)c1ccc(Cl)c([N+](=O)[O-])c1 | . | ? | -10% | . | -1% | ? | ? | 8%
Cc1cc(C)n(CCNS(=O)(=O)c2ccc(C)c(C)c2)n1 | . | 47%[activator] | -5% | . | -1% | -20%[46.1 µM] | 3%[46.1 µM] | 8%
Cc1cccn2c(=O)c3cc(C#N)c(=N)n(CCN4CCOCC4)c3nc12 | -14% | 9% | 3% | -5.5% | -10% | 15% | 0%&6% | -12%
Cc1ccc(S(=O)(=O)/C(C#N)=C/c2c(N3CCN(C)CC3)nc3ccccn3c2=O)cc1 | 3% | 0% | 2% | -0.8% | 4% | -8% | 24%&24%&24% | -3%
O/N=C1/CCCCc2sccc21 | 1% | 5% | -6% | 1.2% | -8% | -2% | -7% | 1%
COc1cccc(CNC(=O)CN2C(=O)COc3ccc(S(=O)(=O)Nc4ccccc4)cc32)c1 | -7% | 28% | . | -5.6% | . | 18%[46.1 µM] | . | .
CCOC(=O)c1sc(NC(=O)CN(CC)CC)c(C(=O)OCC)c1C | 5% | -14% | 7% | 2.7% | 27% | -7% | -7% | -12%
Cc1c(NC(=O)CSC(=S)N2CCCC2)c(=O)n(-c2ccccc2)n1C | . | 2% | . | . | -2% | -11% | -6% | -10%
CCC(C)NS(=O)(=O)c1ccc(NC(=O)CNCc2cccs2)cc1 (stereo not drawn) | . | -2% | . | . | . | -19%[46.1 µM] | 20%[46.1 µM] | -4%
Cn1cc(Cl)c(-c2n[nH]c(=S)n2-c2ccc(F)cc2)n1 | -10% | -12% | -2% | -2.7% | 10% | -2% | -8% | 1%
CCCN(Cc1cccs1)C(=O)Nc1ccc(Br)cc1F | -2% | -29% | . | -4.7% | . | -5%[46.1 µM] | 27%[46.1 µM] | .
C=CCc1cc(/C=N\NC(=O)CSc2nnc(CCCc3ccc(OC)c(C)c3)o2)cc(OC)c1O | 1% | -1% | 2% | 1.5% | 2% | ? | -2% | -1%
CCOc1ccccc1NC(=O)c1nnn(CC(=O)Nc2ccccc2CC)c1N | -18% | -3% | . | -3.1% | . | 0%[46.1 µM] | -12%[46.1 µM] | .
c1ccc2c(c1)[nH]c1ccccc12 | 0% | -10% | . | -6.3% | . | . | . | -23%
COc1cc(OC)cc(C(=O)NCC(=O)OCC(=O)c2ccc3c(c2)-c2ccccc2C3)c1 | -26% | -6% | 7% | -4.5% | 2% | -1% | 1% | 7%
CCOc1ccc(N(CC(=O)NCC2CCCO2)S(=O)(=O)c2ccc(OC)c(OC)c2)cc1 (stereo not drawn) | 22% | -19% | -11% | 0.3% | -12% | -8% | 4%&4% | 6%
O=C(CCl)N(c1ccc(Cl)cc1)c1c[nH]c2ccccc12 | -12% | ? | -9% | -3.4% | -26% | ? | ? | 12%
FC(F)(F)c1cnc(Sc2nnc(-c3cccs3)n2CC2CCCO2)c(Cl)c1 (stereo not drawn) | -10% | -11% | 7% | 1.4% | ? | -24% | 6% | 20%
CCOC(=O)C1=NN(C(C)=O)C2C(=O)N(CC)C(=O)C12 (stereo not drawn) | . | -13% | 3% | . | -2% | . | . | -20%
Cc1ccc(C(=O)NN=C2CCCCCC2)s1 | . | 40%[activator] | 5% | . | -5% | . | . | -11%
COc1ccc(N2CCN(c3nc(NCCO)nc(N4CCOCC4)n3)CC2)cc1 | ? | -3% | -13% | -3.4% | -2% | ? | -1%[46.1 µM] | 31%
O=C(N/N=C/c1sc(=O)[nH]c1-[n+]1ccccc1)c1ccccc1[O-] | . | -4% | 3% | . | 0% | 18%[46.1 µM] | ? | 5%
C/C(=N\NC(=O)c1ccc(O)cc1)c1cccc(NC(=O)c2ccc(Cl)cc2)c1 | . | 2% | . | . | . | ? | . | 1%
CCOc1ccc(Nc2nc(Cc3nnc(SCC(=O)N(CC)CC)n3C)cs2)cc1 | 27% | -21% | 9% | -2.8% | 7% | -15% | ? | 11%
COc1ccc2cc(C(=O)N3CCN(C)CC3)[nH]c2c1 | . | 52%[activator] | 1% | . | -2% | . | . | 1%
COc1ccc(-n2nnc3c(SCC(=O)NCc4ccco4)ncnc32)cc1 | -14% | -27% | -6% | -4.1% | -5% | -3% | ? | 0%
Cc1nc2ccccc2c(=O)n1CC(=O)N1CCOCC1 | -10% | -10% | -7% | 4.1% | 1% | 11% | 0% | 14%
O=C(NCCN1CCN(Cc2ccccc2Cl)CC1)Nc1ccccc1 | -15% | -20% | -1% | 11% | -1% | -7% | 18% | -15%
Oc1ccccc1/C=N/n1cnnc1 | -8% | -22% | 5% | -1.6% | -1% | -7% | 6% | 9%
COc1cccc(/C=N/Nc2nn3cnnc3c3ccccc23)c1 | -3% | ? | 15% | -1.3% | 9% | 2% | ? | -1%
COc1cccc(CC2(CO)CCCN(Cc3ccccc3Cl)C2)c1 (stereo not drawn) | . | -4% | 5% | . | -1% | . | . | 2%
CCN(C(=O)Cn1c(=O)oc2cc(S(=O)(=O)N3CCCCCC3)ccc21)c1cccc(C)c1 | -1% | -21% | . | -1.3% | . | 11%[46.1 µM] | 28%[46.1 µM] | .
C=CCN1C(=O)/C(=C/c2ccc(N(C)C)cc2)S/C1=N\c1nnc(CC)s1 | -23% | . | 0% | -1.5% | 5% | . | 1% | .
CCOC(=O)CCCc1sc(N)nc1-c1[nH]c(=O)[nH]c1C | -11% | -2% | ? | -4.4% | 8% | -5% | 0% | -5%
CCOC(=O)c1ccc(-n2cc(C(=O)c3cccnc3)nn2)cc1 | . | 38%[activator] | -3% | . | 0% | 21%[46.1 µM] | ? | -1%
CCOc1ccc(S(=O)(=O)N2CCCC(C(=O)NCc3ccncc3)C2)cc1C (stereo not drawn) | . | -12% | -3% | . | 3% | -9% | ? | -13%
COc1ccc(-c2[nH]nc3nc(-c4cc(OC)c(OC)c(OC)c4)cc(C(=O)O)c23)cc1 | 2% | -14% | . | -7.0% | . | -3%[46.1 µM] | . | .
CCOC(=O)Cc1csc(NC(=O)NC2(C(F)(F)F)Oc3ccc(Cl)cc3O2)n1 (stereo not drawn) | 1% | -25% | -2% | -7.7% | 3% | ? | ? | 7%
O=C(COc1ccc(-c2ccccc2)cc1)NNC(=O)Nc1ccc(F)cc1F | . | -11% | 5% | . | -2% | -10% | -6% | -25%
COC(=O)c1ccc(CSc2nnc(-c3ccc4c(c3)OCO4)n2-c2ccccc2)o1 | 3% | 6% | -12% | 8.2% | 18% | 0% | 4% | 19%
Cc1cc(Nc2ccccc2)n(-c2ccc(Br)cc2)n1 | -5% | -26% | -14% | -0.7% | -51% | 3% | ? | -8%
Cc1ccc(C(C(=O)NCCc2ccccc2)N(C(=O)c2csnn2)C2CC2)o1 (stereo not drawn) | 0% | 13% | -5% | -1.3% | -1% | -10% | -2% | 3%

Screening data as filed in PubChem BioAssay.
